Bioassay records (PubChem)
AID504770 – growth inhibition of E. coli YBA685, primary screen, V. cholerae RctB inhibitors. z-score (test concentration not listed). E. coli YBA685 rctB-dependent plasmid, OD600 growth, 3 h; stronger effect = lower value. AID 504770, 2011. 130,000 compounds, 0.27% hits;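 active = z-score under -2 on both plates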;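 also: wells of about 30 µL received 100 nL stock; score is relative to mean and SD of the test wells; the first replicate is given; strong numbers were not always called active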
CapD inh – Bacillus anthracis CapD inhibitors, primary screen, biochemical, fluorescence intensity; CapD gamma-glutamyltranspeptidase (Bacillus anthracis Ames Ancestor); purified CapD enzyme, fluorescence intensity read-out; stronger effect = lower value; some hits fall short of the stated cut; z-score (concentration not given with the values); 140,000 compounds, 0.23% hits; AID 492967, 2010;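 active = z-score under -4 in either of two replicates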;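 also: stock transfer was 100 nL into about 40 µL; score is relative to mean and spread of the plate; one replicate is shown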
Numbers without * were called inactive; / = no result given; & = joins results of further samples.

SMILES | AID504770 | CapD inh
Cn1nc(-c2ccc(S(=O)(=O)NCc3cccs3)s2)cc1C(F)(F)F | -0.5 | 0.52
CCOC(=O)c1cnc2cc(-c3ccccc3)[nH]n2c1=O | 0.25&-1.6 | 8.2&0.3
CCn1c(=NC(=O)CSCC(=O)Nc2nc(-c3ccccc3)cs2)sc2ccccc21 | -0.7 | 0.055
CCCN1CCC(N(C2CC2)S(=O)(=O)c2ccc(NC(=O)C(c3ccccc3)c3ccccc3)cc2)CC1 | / | -0.15
O=C1CSC(=O)N1CNc1cc(Cl)ccc1Cl | -0.7 | /
N#CC1=C(N)C(C#N)(C#N)[C@@H](c2cccc(Cl)c2)[C@@H]2CSCC=C12 | 1.3 | 0.21
CCSc1nc2ccccc2n1Cc1ccc(OC)c([N+](=O)[O-])c1 | / | -0.88
O=C(Cn1ncc2c3ccccc3n(Cc3ccccc3)c2c1=O)Nc1ccc(F)cc1 | 1.9 | 1
CCCN(CCC)C(=O)c1c[nH]c2ccc(S(=O)(=O)Nc3ccc(CC)cc3)cc2c1=O | -0.25 | 2.7
CCOC(=O)c1oc2ccc(Br)cc2c1COC(=O)CCn1c(C)csc1=O | 0.2 | /
CC(O)c1nc2ccccc2[nH]1 (stereo not given) | / | 0.005
O=C(CSC1=Nc2ccccc2C2=NC(Cc3ccccc3)C(=O)N12)c1ccc(F)cc1 (stereo not given) | -0.2 | -0.62
O=S1(=O)CCC(NS(=O)(=O)c2ccc3c(c2)CCO3)C1 (stereo not given) | -0.7 | -0.47
CC(C)c1ccc(NC(=O)CN(C)S(=O)(=O)c2cnc[nH]2)cc1 | -0.15 | -0.34
Cn1c(=O)c(-c2[nH][nH]c(=O)c2/C=C2/C=Nc3ccccc32)c(O)c2ccccc21 | -0.5 | 8.9
Cc1ccccc1Cn1c(CCCO)nc2ccccc21 | 0.3 | -0.76
OC1CCCN(CC(O)COc2ccc(-c3ccccc3)cc2)C1 (stereo not given) | -0.8 | /
CCC(=O)Nc1cccc(-c2nc3cccnc3s2)c1 | 0.4 | /
C/C(C#N)=C(/N)c1ccccc1 | 1 | 0.71
CCC(C)NC(=O)c1cccc(N2CCCC2=O)c1 (stereo not given) | -0.25 | 0.46
Nc1ncnc2c1nc(N1CCOCC1)n2C1OC(CO)C(O)C1O (stereo not given) | / | -0.04
CC(C)NC(=O)CSc1nnc(Cc2ccccc2)n1C | -1.5 | /
CC(C)(C)S(=O)(=O)/C(C#N)=C/c1ccsc1 | 2.3 | -0.81
Cc1cc(NC(=O)CCC(=O)Nc2cc(C)on2)no1 | 1.5 | 0.2
COc1cc(C2C(C#N)=C(N)Oc3c2c(=O)oc2ccccc32)cc(OC)c1OC(=O)N1CCOCC1 (stereo not given) | / | 2.3
COC(=O)c1cc(OC)c(OC)c(OC)c1NS(=O)(=O)c1cc(OC)ccc1OC | / | 0.54
O=C(CSc1ccc2ccccc2c1)N1CCOCC1 | 1.9 | -0.69
CC(=O)N1CC(=O)Nc2ccc(F)cc2C1c1ccc(F)cc1 (stereo not given) | 0.1 | -0.095
CNCCC(=O)N1c2ccccc2CCc2ccc(NC(=O)OC)cc21 | / | 5.9
O=C1CCCC(O)=C1C=NCCCn1ccnc1 | -1.1 | 2.4
O=C(NN1C(=O)c2cccc3cccc(c23)C1=O)c1ccn[nH]1 | 0.6 | 56
CN(Cc1ccccc1)C(=O)C1CCN(c2nnc(-n3cccc3)s2)CC1 | -0.55 | 0.79
CCN(CC)Cc1c(CC(C)C)oc(C)c1C(=O)O | -0.85 | 0.19
Cc1cc(NC(=O)NC(=O)c2ccccc2)no1 | -0.2 | -0.97
Cn1c(SCc2cc(F)cc(F)c2)nnc1-c1ccc2nonc2c1 | 1.8 | 2.3
O=C(CSc1nc2c(c(C(F)(F)F)n1)CCc1ccccc1-2)N1CCCCC1 | 0.05 | /
CCC(=O)c1ccc(N2CCCCC2)c(F)c1 | -0.15 | 0.065
CC(C)CCNC(=O)C1(C)CCC(=O)N1Cc1ccccc1Cl (stereo not given) | -0.75 | 0.44
CC1CN(C)C(C)c2c1oc1ccc(N)cc21 (stereo not given) | 0.05 | /
COc1cc(Cl)ccc1S(=O)(=O)N1CCCN(S(=O)(=O)c2ccc(Cl)cc2OC)CC1 | -0.6 | 0.18
CC(C)=NNC(=O)Nc1c(-c2c(Cl)cccc2Cl)noc1C | 0.8 | -0.46
O=C(Nc1ncnc2sc3c(c12)CCCCC3)c1ccco1 | -0.2 | 15
Fc1ccc(CN2CCc3nc(Nc4ccc(F)cc4)ncc3C2)cc1 | 1.6 | 0.47
Cc1ccc(C)c(C(=O)CSc2nnc(-c3cccs3)n2CC2CCCO2)c1 (stereo not given) | -0.25 | /
CCN1C(=O)NC(c2ccccc2[N+](=O)[O-])C(C(=O)OCCc2ccccc2)=C1C (stereo not given) | / | 0.09
Cc1ccc2nc(SC3CCCCC3=O)[nH]c2c1 (stereo not given) | 0.1 | /
CN1CCN(C(=O)NCC23CC4CC(CC(C4)C2)C3)CC1 | 0.75 | -0.43
COc1cc(COc2ccc3c4c(c(=O)oc3c2)CCC4)cc(OC)c1OC | -0.65 | 2
O=C(O)c1ccc(COc2ccccc2/C=C2\NC(=O)N(Cc3ccccc3)C2=O)cc1 | -0.6 | 4.7
COc1cccc(OCC(=O)Nc2ccc(OC(C)=O)cc2C(=O)O)c1 | -1.1 | -10*

Later entries:
SMILES | AID504770 | CapD inh
N#Cc1c(NC(=O)CSc2nc3ccccc3o2)sc2c1CCC2 | / | 0.26
COc1ccc(CCNC(=O)c2cn(C3CCCC3)c(=O)c3c2c2ccccc2n3C)cc1OC | -2.9 | -0.32
Cc1cc(C(=O)Nc2cccnc2)no1 | -1.8 | -2.4
CC(NC(=O)/C=C/c1cccc2ccccc12)c1ccccc1 (stereo not given) | 2.8 | 42
COc1cc2c(cc1OC)CC(C(=O)O)NC2 (stereo not given) | 1 | /
CCOC(=O)C1=C(C)NC(SCc2ccc(C(=O)O)cc2)=NC1c1ccc(OCC)cc1 (stereo not given) | 1.1 | 3.8
COC(=O)C1CSC(c2ccc(Cl)cc2)N1C(=O)c1ccc(OC)cc1 (stereo not given) | / | -0.38
CCOC(=O)c1sc2ncn(CC(=O)OCC(C)C)c(=O)c2c1C | -0.65 | -0.66
COC(=O)C1CC(=O)N(c2ccccc2)C1 (stereo not given) | -1.5 | /
COc1ccc(-c2cn3c(n2)sc2cc(C(=O)N4CCC5(CC4)OCCO5)ccc23)cc1 | 0.2 | 2.3
Cc1cc(-c2onc(C)c2C(=O)NNC(=O)c2ccc(-n3nc(-c4ccccc4)cc3-c3ccccc3)cc2)no1 | / | 1.3
COc1ccc(N(C(=O)c2ccccc2)C2=CC3CCC(C2)N3C)cc1 (stereo not given) | / | -0.12
Nc1nonc1C(=O)N/N=C/c1ccccc1 | 0.8 | -1.7
CC1SCC(=O)N(CC(=O)Nc2ccccc2C(F)(F)F)C1=O (stereo not given) | 0.25 | 0.87
O=C(Oc1ccccc1)c1ccc(CS(=O)(=O)c2ccc(C(F)(F)F)cn2)o1 | 0.5 | -0.14
CCOc1ccc(C2C(C#N)=C(N)Oc3n[nH]c(-c4ccc(F)cc4)c32)cc1OCC (stereo not given) | / | -0.29
CC(=O)NC1C(=O)N=C(SCC(=O)Nc2cccc3ccccc23)NC1=O (stereo not given) | 1.8 | -0.045
Cn1c(CC(=O)Nc2ccccc2F)nnc1SCC(=O)NC1=NCCS1 | -0.85 | /
CN(Cc1ccccc1)C(=O)c1ccccc1C(=O)N1CCN(c2ncccn2)CC1 | -1.1 | /
COC(=O)c1cc(C(=O)OC)cc(N2C(=O)CSC2c2ccccc2C(F)(F)F)c1 (stereo not given) | / | -1.8
CC1(C)C/C(=N\O)c2cc3c(nc2C1)CCCC3 | 0.1 | /
COc1cc(C(=O)Nc2nc3ccc(C)cc3s2)cc(OC)c1OC | 0.9 | 3.9
CCCc1c(C)nc(N)c(C#N)c1-c1ccc(OC)c(OC)c1 | 1.6 | /
CCOc1ccc(N(C)S(=O)(=O)c2ccc3[nH]cc(C(=O)NCC4CCCO4)c(=O)c3c2)cc1 (stereo not given) | 1.6 | 0.77
CN(C)CCNC(=O)c1nc(-c2cccnc2)no1 | -0.65 | -0.86
CC1CCCN(C(=O)c2cccc3c2SCCC3=O)C1 (stereo not given) | -0.7 | 1.1
O=C(OCc1cccs1)c1ccco1 | 0.15 | -0.56
COC(=O)c1c(NC(=S)NCc2ccco2)sc2c1CCC(C)C2 (stereo not given) | -0.05 | -0.48
CN1CCc2nc(SCc3ccc(F)cc3)c(C#N)c(-c3cccs3)c2C1 | / | -0.26
CCOC(=O)CSc1c(-c2cccs2)[nH]c2ccccc12 | -0.7 | -0.42
CCC(C)c1ccc(N2C(=O)C=CC2=O)cc1 (stereo not given) | -0.3 | -0.045
O=C(NCCS(=O)(=O)Cc1cc2cccc3c2n(c1=O)CCC3)c1ccccc1 | / | 2.4
c1coc(CNc2ncnc3sc4c(c23)CCCC4)c1 | -0.95 | /
Cc1cccc(C(=O)Nc2ccccn2)c1 | -0.8 | /
CC1=Cn2c(=O)c3ccccc3c(=O)n2C1 | / | -0.83
Cc1nc2cc(NCc3ccccc3O)ccc2n1Cc1ccccc1 | -0.55 | 13
Fc1c(F)c(Oc2ccccc2)c(F)c(F)c1Oc1ccccc1 | 1.1 | /
CCOC(=O)CSc1nnc2c(n1)[nH]c1ccccc12 | / | 0.05
O=C(Nn1cnnc1)c1cccc(C(F)(F)F)c1 | -0.75 | -0.16
CSc1ccc(S(=O)(=O)Nc2ccc(N3CCOCC3)c(Cl)c2)cc1 | -0.05 | -0.07
CC1CC(CCC(=O)Nc2ccc(S(N)(=O)=O)cc2)C(=O)O1 (stereo not given) | -0.75 | -0.6
CC(C)(C)c1ccc(OCCOc2ccc(/C=C3/NC(=S)NC3=O)cc2)cc1 | / | 0.73
CCN1CCN(CCCNC(=O)c2cc3c(=O)[nH]c4ccc(C)cc4c3s2)CC1 | -0.45 | 26
CCC(=O)N1CCCc2ccccc21 | -0.35 | 0.3
CC(C)(C)c1ccc(COC(=O)NC(Cc2c[nH]c3ccccc23)C(=O)OCc2ccccc2)cc1 (stereo not given) | / | 0.03
COc1ccccc1N1CCN(Cc2cc(=O)oc3cc(C)c(Cl)cc23)CC1 | 0.05 | /
O=C1NC(=Nc2ccc(Br)cc2)SC1Cc1cccc2ccccc12 (stereo not given) | / | -0.83
Cc1cc(C)nc(NS(=O)(=O)c2ccc(NC(=O)c3sc4nc5c(cc4c3N)CCCC5)cc2)n1 | / | -0.01
Cc1ccc(-c2nc(-c3ccccc3)nc(N3CCN(C)CC3)c2C#N)cc1 | / | -0.18
O=C1Cc2ccccc2C(=O)N1c1cccc(Cl)c1 | -1.2 | /

The closing five compounds of the section above are carried over, then new ones follow:
SMILES | AID504770 | CapD inh
COc1ccccc1N1CCN(Cc2cc(=O)oc3cc(C)c(Cl)cc23)CC1 | 0.05 | /
O=C1NC(=Nc2ccc(Br)cc2)SC1Cc1cccc2ccccc12 (stereo not given) | / | -0.83
Cc1cc(C)nc(NS(=O)(=O)c2ccc(NC(=O)c3sc4nc5c(cc4c3N)CCCC5)cc2)n1 | / | -0.01
Cc1ccc(-c2nc(-c3ccccc3)nc(N3CCN(C)CC3)c2C#N)cc1 | / | -0.18
O=C1Cc2ccccc2C(=O)N1c1cccc(Cl)c1 | -1.2 | /
Cc1cc(C(=O)COC(=O)c2ccc(O)cc2)c(C)n1CC1CCCO1 (stereo not given) | 0.25 | /
CCOCc1nnc(NC(=O)C2CC(=O)N(C(C)(C)C)C2)s1 (stereo not given) | 0.6 | /
Fc1c(F)c(C(F)(F)F)c(F)c2c1Oc1cc(Cl)c(Cl)cc1O2 | 1.8 | 21
O=C(N/N=C/c1ccc(Br)cc1)c1ccc([N+](=O)[O-])o1 | / | -1.5
CC1CCc2nc(NC(=O)c3cc(=O)c4ccccc4o3)sc2C1 (stereo not given) | / | -0.66
CCCOC(=O)CSC1=C(C#N)C(c2ccc(Cl)cc2)C(C(=O)OC)C(=O)N1 (stereo not given) | / | -0.36
OC(CNCCc1cccs1)COc1ccccc1 (stereo not given) | -1.5 | 0.12
CC12CCC(C1)C(C)(C)C2OCC(O)CN1CCN(c2cccc(C(F)(F)F)c2)CC1 (stereo not given) | -0.2 | -0.27
C(=NN1CCN(C2c3ccccc3-c3ccccc32)CC1)c1cccs1 | 0 | -0.73
Cc1ccc([N+](=O)[O-])cc1S(=O)(=O)n1c(SCc2ccccc2F)nc2ccccc21 | / | 0.7
Cc1ccc(S(=O)(=O)NC(=O)c2ccc(Cl)nc2Cl)cc1 | -0.55 | -0.93
Cc1cc2occ(CC(=O)Nc3ccc(S(=O)(=O)C(F)F)cc3)c2cc1C | 0.15 | /
O=C(CSc1n[nH]c(-c2ccco2)n1)c1ccc(O)cc1O | / | -1.7
O=C(NCc1ccccc1Cl)c1ccc2c(c1)[nH]c(=S)n1c3ccccc3nc21 | / | -0.24
CC1(C)CC(=O)C2=C(C1)OC1=C(C(=O)CC(C)(C)C1)C21C(=O)Nc2ccccc21 | / | -0.51
CC(=O)[C@H]1CC[C@H]2[C@@H]3CC[C@H]4C[C@H](O)CC[C@]4(C)[C@H]3C(=O)C[C@]12C | / | -0.56

2 of the compounds above, field by field:
> CCCc1c(C)nc(N)c(C#N)c1-c1ccc(OC)c(OC)c1
  AID504770: 1.6
  CapD inh: /

> Cc1cc(C(=O)Nc2cccnc2)no1
  AID504770: -1.8
  CapD inh: -2.4

Reprinted at random: three records from the list
SMILES | AID504770 | CapD inh
O=C(N/N=C/c1ccc(Br)cc1)c1ccc([N+](=O)[O-])o1 | / | -1.5
CCOCc1nnc(NC(=O)C2CC(=O)N(C(C)(C)C)C2)s1 (stereo not given) | 0.6 | /
C(=NN1CCN(C2c3ccccc3-c3ccccc32)CC1)c1cccs1 | 0 | -0.73
